eIF4H inh: inhibitors of RNA binding by human eIF4H | Q15056 | eIF4H fluorescence polarization binding assay | inhibition, % at 35 µM | actives 0.94% (n = 290,000) | AID 2012;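 active = 50% or more with normal probe brightness, or confirmed in later tests; about a fifth of its hits are not listed in these tables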;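 note: calls also rest on retests at 20 µM and on dose response follow-up; 0% = protein and probe with vehicle and 100% = probe without protein; strong numbers were not always called active; many hits fall short of the cut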
UUG fidelity: modulators of start codon recognition fidelity in yeast; actives 0.13% (n = 350,000); S. cerevisiae UUG-firefly luciferase reporter, luminescence/redox ratio; activity score, % at 18.7 µM; AID 602363;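 active = replicate mean at a twofold rise or more, about +100% in these data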;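 note: firefly luciferase made from a UUG start codon reports start codon fidelity; reporter light over untreated wells divided by growth signal over untreated wells; some hits fall short of that in this replicate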
MT1-MMP act inh: inhibitors of human MT1-MMP activation | P50281 | HT1080 RFP-PRO-GFP cells, GFP/RFP ratio fluorescence, overnight; percent of plate control window, DMSO zero | GFP/RFP ratio change, % at 20 µM | actives 0.061% (n = 360,000) | AID 651647;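 active = GFP/RFP ratio change of at least 30% with cell ATP level not reduced by more than half and red fluorescence within 50% of control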; note: strong numbers were not always called active
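Material – HT1080 RFP-PRO-GFP cells · Control set – DMSO wells and RFP-L50D-GFP cells · Incubation – overnight cell settling, then overnight compound exposure, 37 °C, 5% CO2 · Compound dosing – single-point 20 µM compound, 1% DMSO · Read-out – GFP/RFP fluorescence ratio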
CSC inhib: blocks cancer stem cells | cancer stem cell-like cells viability, luminescence | inhibition, % at 7.5 µM | actives 1.1% (n = 300,000);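 active = mean at 75% or more and at least half the replicates too; tested in HMLE shEcad cells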;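 note: 0% = median of negative and 100% = median of positive control wells; the first replicate is given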
HIV Env fusion: inhibitors of HIV Env-mediated cell fusion; AID 651610; HeLa-JRFL Env/CEM21 cell fusion, luciferase; inhibition, % at 12.3 µM; actives 1.1% (n = 360,000);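 active = mean replicate inhibition score of at least 50 and every replicate individually at or above 50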;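 note: 0% = plate neutral controls and 100% = maraviroc near 300 nM; one replicate is shown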
PABP FP inh: blocks human PABP binding to poly(A) RNA; P11940; inhibition, % at 35 µM; AID 2014; fluorescence polarization; actives 1% (n = 290,000);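 active = 50% or more with normal probe brightness, or confirmed in later tests; about a fifth of its hits are not listed in these tables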;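 note: calls also rest on retests at 20 µM and on dose response follow-up; controls were probe without protein and protein plus probe with vehicle; some compounds called inactive have numbers as strong as hits; many hits fall short of the cut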
Target sequence (P11940 whole entry, looked up): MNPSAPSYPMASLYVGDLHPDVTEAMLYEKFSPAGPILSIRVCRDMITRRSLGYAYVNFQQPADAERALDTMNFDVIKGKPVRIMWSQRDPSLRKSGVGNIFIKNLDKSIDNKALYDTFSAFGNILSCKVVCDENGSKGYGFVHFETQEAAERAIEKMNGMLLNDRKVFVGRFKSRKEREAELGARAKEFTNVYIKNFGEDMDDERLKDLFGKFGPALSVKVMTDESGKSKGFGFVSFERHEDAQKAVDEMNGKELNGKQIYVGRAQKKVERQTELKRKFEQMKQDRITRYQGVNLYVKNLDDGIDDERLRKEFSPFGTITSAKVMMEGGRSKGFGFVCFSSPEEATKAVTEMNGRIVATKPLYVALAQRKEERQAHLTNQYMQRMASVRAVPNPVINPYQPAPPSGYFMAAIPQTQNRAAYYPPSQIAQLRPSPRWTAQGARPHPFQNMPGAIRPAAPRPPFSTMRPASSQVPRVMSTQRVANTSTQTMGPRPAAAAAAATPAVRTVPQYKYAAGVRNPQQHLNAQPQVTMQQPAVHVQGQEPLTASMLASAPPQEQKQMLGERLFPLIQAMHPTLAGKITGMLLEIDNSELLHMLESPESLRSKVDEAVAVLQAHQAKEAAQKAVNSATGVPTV
Rce1 inhib: inhibitors of yeast Ras-converting enzyme; yeast membranes, quenched prenylated peptide cleavage fluorescence; calls only; actives 0.27% (n = 290,000); AID 2563;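 active = fall in fluorescence gain of 50% or more versus controls, with final raw signal at or below 3038400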;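 note: plate controls were neutral control wells for no effect and wells lacking membranes for full effect; tested at 10 µM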
eIF4H inh retest: further read-out of eIF4H inh, marked with its call; inhibition, %; compound at 20 µM; confirmation average;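 mean of two retest wells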
PABP FP inh retest: further read-out of PABP FP inh, marked with its call; inhibition, %; compound at 20 µM; confirmation repeats;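 mean of two retest wells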
MT1-MMP act inh RFP: further read-out of MT1-MMP act inh, marked with its call; RFP signal change, %; measured here: RFP expression control read;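 0 = vehicle wells; hits needed this value within 50% of zero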
* marks the source's active call; other numbers are inactive results.

For COc1ccc(C2CC(c3cccs3)Nc3nnnn32)cc1 (stereo unspecified) the results were eIF4H inh 1, MT1-MMP act inh -2, CSC inhib 3, HIV Env fusion 15, PABP FP inh 2, Rce1 inhib inactive and MT1-MMP act inh RFP 1.
For CC(=O)N1c2ccc(S(=O)(=O)N(C)CC(=O)NC3CCCC3)cc2CC1C (stereo unspecified) the results were eIF4H inh -5, UUG fidelity -26, MT1-MMP act inh 3, CSC inhib -20, HIV Env fusion 1, PABP FP inh -5, Rce1 inhib inactive and MT1-MMP act inh RFP 3.
O=C(O)/C=C/C(=O)NCCc1ccc(Cl)cc1 was read as eIF4H inh -12, UUG fidelity -5, MT1-MMP act inh -3, CSC inhib -11, HIV Env fusion -4, PABP FP inh 4, Rce1 inhib inactive and MT1-MMP act inh RFP 1.
`CC1CCN(S(=O)(=O)c2cccc(C(=O)N(C)C3CCS(=O)(=O)C3)c2)CC1` (stereo unspecified) gave eIF4H inh -12, UUG fidelity 2, MT1-MMP act inh 3, CSC inhib -5, HIV Env fusion -46, PABP FP inh -2, Rce1 inhib inactive and MT1-MMP act inh RFP 2.
`Cc1cccnc1C(NC(=O)C1CCN(Cc2ccc(Cl)cc2)CC1)c1ccc(F)cc1` (stereo unspecified) gave UUG fidelity -6, MT1-MMP act inh -3, HIV Env fusion -2 and MT1-MMP act inh RFP -2.
CCc1ccc(-c2cc(C)no2)cc1S(=O)(=O)NCCc1ccccc1 was read as eIF4H inh -6, MT1-MMP act inh -3, CSC inhib -2, HIV Env fusion -1, PABP FP inh -3, Rce1 inhib inactive and MT1-MMP act inh RFP -2.
Cc1cccc(/C=C/c2nc3ccccc3c(=O)[nH]2)c1 was read as eIF4H inh -3, MT1-MMP act inh -10, CSC inhib 41, HIV Env fusion -367, PABP FP inh 0, Rce1 inhib inactive and MT1-MMP act inh RFP -15.
COc1ccc(CC2C(=O)OC(C)(C)OC2=O)c(Cl)c1OC was read as eIF4H inh 4, UUG fidelity -9, MT1-MMP act inh 1, HIV Env fusion 0, PABP FP inh 34, Rce1 inhib inactive and MT1-MMP act inh RFP 4.
For CCC(=O)NCCc1nc2cc(NC(=O)Nc3ccccc3)ccc2n1C the results were eIF4H inh -3, UUG fidelity -32, MT1-MMP act inh 4, CSC inhib -11, HIV Env fusion -14, PABP FP inh -1, Rce1 inhib inactive and MT1-MMP act inh RFP 1.
For Cc1ccc(NC(=O)COC(=O)c2ccc3c(c2)NC(=O)C2CCCN32)cc1C (stereo unspecified) the results were eIF4H inh 3, HIV Env fusion -61 and PABP FP inh -1.
O=C(COC(=O)[C@@H]1CCCN1S(=O)(=O)c1ccccc1F)c1ccccc1 was read as eIF4H inh -8, UUG fidelity -12, MT1-MMP act inh 5, CSC inhib -17, HIV Env fusion 6, PABP FP inh 0, Rce1 inhib inactive and MT1-MMP act inh RFP 8.
`CC1(C)CCC[C@@]2(C)CC=C(C(=O)O)[C@@H]3C[C@]312` gave UUG fidelity -9, MT1-MMP act inh 4, CSC inhib -13, Rce1 inhib inactive and MT1-MMP act inh RFP 0.
`COc1ccc(C)cc1NC(=O)CSc1ccc(-c2ccco2)nn1` gave eIF4H inh 4, UUG fidelity -7, MT1-MMP act inh -4, CSC inhib 8, HIV Env fusion 14, PABP FP inh -2, Rce1 inhib inactive and MT1-MMP act inh RFP -3.
Screening COC(=O)C[N+](C)(C)C/C=C\c1ccccc1 returned eIF4H inh 0, MT1-MMP act inh 2, CSC inhib -12, HIV Env fusion -6, PABP FP inh -4, Rce1 inhib inactive and MT1-MMP act inh RFP 7.
Screening O=C(Nc1cccc(O)c1)c1noc2c1CCCCC2 returned eIF4H inh 4, MT1-MMP act inh 9, CSC inhib -2, PABP FP inh -1, Rce1 inhib inactive and MT1-MMP act inh RFP -4.
`COc1ccc(C2C(C#N)=C(N)Oc3cc(C)n(Cc4ccncc4)c(=O)c32)cc1` (stereo unspecified) gave eIF4H inh 2, UUG fidelity -14, MT1-MMP act inh -4, CSC inhib -4, PABP FP inh 59, Rce1 inhib inactive, eIF4H inh retest 6, PABP FP inh retest 8 and MT1-MMP act inh RFP 2.
Screening C=CC[N+](C)(C)CCN1C(=O)C2C(c3ccccc3)C=CC(c3ccccc3)C2C1=O (stereo unspecified) returned eIF4H inh 0, MT1-MMP act inh 3, CSC inhib 3, HIV Env fusion 22, PABP FP inh 12, Rce1 inhib inactive and MT1-MMP act inh RFP 4.
Screening COC(=O)c1cc(NC2c3ncccc3C(=O)N2Cc2ccccc2)cc(C(=O)OC)c1 (stereo unspecified) returned eIF4H inh -12, UUG fidelity -6, MT1-MMP act inh 6, CSC inhib -6, PABP FP inh -2, Rce1 inhib inactive and MT1-MMP act inh RFP 1.
O=C(COc1ccc([N+](=O)[O-])cc1)N(Cc1ccccc1)Cc1ccccc1 was read as eIF4H inh 8, MT1-MMP act inh 0, CSC inhib 21, PABP FP inh 2, Rce1 inhib inactive and MT1-MMP act inh RFP 2.
For O=C(/C=C/c1cccc([N+](=O)[O-])c1)NCCSc1ccccc1 the results were eIF4H inh -2, MT1-MMP act inh 0, CSC inhib 1, PABP FP inh 3, Rce1 inhib inactive and MT1-MMP act inh RFP -1.
For CCOc1ccc(NC(=O)N2CCC(C(=O)c3ccc(F)cc3)CC2)cc1 the results were eIF4H inh 3, UUG fidelity -2, MT1-MMP act inh 11, CSC inhib -6, HIV Env fusion -7, PABP FP inh -9, Rce1 inhib inactive and MT1-MMP act inh RFP -2.
For O=Cc1cn(CC(=O)N2CCOCC2)c2ccccc12 the results were eIF4H inh 5, UUG fidelity 7, MT1-MMP act inh 0, CSC inhib 4, PABP FP inh 4, Rce1 inhib inactive and MT1-MMP act inh RFP 0.
For Cc1[nH]c2ccc(C(=O)OCCN(C)C)cc2c1C the results were eIF4H inh 0, UUG fidelity 6, MT1-MMP act inh 1, CSC inhib -2, PABP FP inh 4, Rce1 inhib inactive and MT1-MMP act inh RFP 3.
Screening Nc1ccc(C(=O)NCC(=O)O)cc1 returned UUG fidelity 6, MT1-MMP act inh 3, CSC inhib -5, HIV Env fusion 6 and MT1-MMP act inh RFP -2.
`N=c1sccn1CC(=O)NCCc1ccc(Cl)cc1` gave eIF4H inh 0, UUG fidelity -17, MT1-MMP act inh 2, CSC inhib -2, HIV Env fusion -40, PABP FP inh -14, Rce1 inhib inactive and MT1-MMP act inh RFP 1.
Screening CCCCn1c(CCC(=O)O)nc2c1c(=O)[nH]c(=O)n2CCC returned eIF4H inh -8, UUG fidelity 0, MT1-MMP act inh 0, CSC inhib 3, HIV Env fusion -12, PABP FP inh -11, Rce1 inhib inactive and MT1-MMP act inh RFP 8.
OCCC1CN(Cc2c(O)ccc3ccccc23)CCN1CCc1ccccc1 (stereo unspecified) was read as eIF4H inh 2, MT1-MMP act inh 1, CSC inhib -7, HIV Env fusion 14, PABP FP inh 12, Rce1 inhib inactive and MT1-MMP act inh RFP 8.
`CCOC(=O)C(=O)N/N=C/c1cccc(Br)c1` gave eIF4H inh 2, UUG fidelity -11, MT1-MMP act inh 1, CSC inhib -9, HIV Env fusion -1, PABP FP inh 6, Rce1 inhib inactive and MT1-MMP act inh RFP 9.
For COc1ccccc1CNC(=S)Nc1cc(C)ccc1C the results were eIF4H inh 6, MT1-MMP act inh -3, CSC inhib -2, HIV Env fusion 4, PABP FP inh 8, Rce1 inhib inactive and MT1-MMP act inh RFP -4.
C=CCNC(=O)c1onc(CSc2ccncc2)c1C(=O)NCC=C was read as eIF4H inh 2, UUG fidelity -13, MT1-MMP act inh -5, CSC inhib -20, HIV Env fusion -8, PABP FP inh -2, Rce1 inhib inactive and MT1-MMP act inh RFP -3.

3 structures out of the list, arranged by molecular weight, rising:
For Cc1[nH]c2ccc(C(=O)OCCN(C)C)cc2c1C the results were eIF4H inh 0, UUG fidelity 6, MT1-MMP act inh 1, CSC inhib -2, PABP FP inh 4, Rce1 inhib inactive and MT1-MMP act inh RFP 3.
`N=c1sccn1CC(=O)NCCc1ccc(Cl)cc1` gave eIF4H inh 0, UUG fidelity -17, MT1-MMP act inh 2, CSC inhib -2, HIV Env fusion -40, PABP FP inh -14, Rce1 inhib inactive and MT1-MMP act inh RFP 1.
For CCOc1ccc(NC(=O)N2CCC(C(=O)c3ccc(F)cc3)CC2)cc1 the results were eIF4H inh 3, UUG fidelity -2, MT1-MMP act inh 11, CSC inhib -6, HIV Env fusion -7, PABP FP inh -9, Rce1 inhib inactive and MT1-MMP act inh RFP -2.

Continued.
`CN(C1CCS(=O)(=O)C1)S(=O)C12CC3CC(CC(C3)C1)C2` (stereo unspecified) gave eIF4H inh 0, MT1-MMP act inh 0, CSC inhib -14, PABP FP inh -4, Rce1 inhib inactive and MT1-MMP act inh RFP 1.
`COc1ccc(C(=O)NCC(C)NC(=O)c2ccc(OC)c(Br)c2)cc1Br` (stereo unspecified) gave UUG fidelity 4, MT1-MMP act inh 6, CSC inhib -2, HIV Env fusion -27 and MT1-MMP act inh RFP 0.
Cc1ccccc1C(=O)NN1CCOCC1 was read as eIF4H inh -2, MT1-MMP act inh 9, CSC inhib -11, PABP FP inh 0, Rce1 inhib inactive and MT1-MMP act inh RFP 4.
For COc1ccc(Nc2cc(C(=O)NCc3ccco3)c3ccccc3n2)c(OC)c1 the results were eIF4H inh 3, UUG fidelity -6, MT1-MMP act inh 18, CSC inhib 3, PABP FP inh -3, Rce1 inhib inactive and MT1-MMP act inh RFP 2.
`Cc1ccc(OCCNC(=O)C(C)SCC(=O)Nc2ccc(F)cc2)cc1` (stereo unspecified) gave UUG fidelity 3, MT1-MMP act inh 2, CSC inhib -12 and MT1-MMP act inh RFP -1.
For Cc1ccc(-n2nc(CC#N)c(C#N)c2N)cc1Cl the results were eIF4H inh -5, MT1-MMP act inh -5, CSC inhib 4, HIV Env fusion -55, PABP FP inh 1, Rce1 inhib inactive and MT1-MMP act inh RFP 1.
CN(C)C(=S)NC(=O)C12CC3(C)CC(C)(CC(C)(C3)C1)C2 was read as eIF4H inh -1, UUG fidelity -14, MT1-MMP act inh 0, CSC inhib -14, HIV Env fusion 16, PABP FP inh -4, Rce1 inhib inactive and MT1-MMP act inh RFP -2.
Screening Cc1cc(C)c(S(=O)(=O)c2ccccc2C)c(OCCN(C)C)n1 returned eIF4H inh -8, UUG fidelity -7, MT1-MMP act inh 1, CSC inhib -20, HIV Env fusion 1, PABP FP inh -4, Rce1 inhib inactive and MT1-MMP act inh RFP 1.
Screening O=S(=O)(c1ccc(Oc2ccc(Cl)cc2)nc1)N1CCOCC1 returned MT1-MMP act inh 4, CSC inhib -12, Rce1 inhib inactive and MT1-MMP act inh RFP -2.
Screening Cc1cccn2c(=O)c(C(=O)NC3CCCCC3C)c(O)nc12 (stereo unspecified) returned UUG fidelity 12, MT1-MMP act inh 0, CSC inhib -3, HIV Env fusion 22, Rce1 inhib inactive and MT1-MMP act inh RFP -5.
For O=C(Nc1ccc(Cl)cc1C(F)(F)F)c1ccc(Cl)cc1 the results were eIF4H inh -9, UUG fidelity -17, MT1-MMP act inh 8, HIV Env fusion -89, PABP FP inh -1, Rce1 inhib inactive and MT1-MMP act inh RFP 1.
Screening CCCCn1cnc2c1c(=O)n(CC(=O)c1cc(C)n(C)c1C)c(=O)n2CC(C)C returned eIF4H inh 4, UUG fidelity -5, MT1-MMP act inh 2, CSC inhib -3, PABP FP inh 0, Rce1 inhib inactive and MT1-MMP act inh RFP 5.
Screening Cc1cccc(N2CCN(S(=O)(=O)c3c(C)[nH]c(C)c3C(=O)N3CCCC3)CC2C)c1 (stereo unspecified) returned eIF4H inh -1, UUG fidelity -12, MT1-MMP act inh -1, CSC inhib -6, HIV Env fusion 27, PABP FP inh 7, Rce1 inhib inactive and MT1-MMP act inh RFP 0.

Source: PubChem (several laboratories)
